AF4-AF9 inh – inhibitors of AF4 peptide binding to AF9, primary screen, biochemical, AlphaScreen, biotin-AF4 peptide, FLAG-AF9, single point; Protein AF-9 (Homo sapiens), P42568; inhibition, % at 10 µM; 350,000 tested, 0.47% active;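 active = every replicate reaching a set inhibition limit, whatever the replicate mean, cut at about 25% in these data; inconclusive = mean inhibition reaches that limit but some replicates miss it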;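 also: 0% = plate neutral control median and 100% = total signal loss; the record names both 10 and 1 µM as test concentration; the first replicate is given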
ALR inh – inhibitors of human ALR sulfhydryl oxidase, primary screen, biochemical, H2O2 detection, HRP-luminol luminescence, single point; FAD-linked sulfhydryl oxidase ALR (Homo sapiens), P55789; purified ALR, DTT oxidation; inhibition, % (concentration not given with the values); 290,000 tested, 3.8% active; AID 485317, 2010;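 active = mean and each replicate at 75% or more; inconclusive = only one of the two met; inactive = neither met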;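 also: stock transfer was 7.5 nL into about 7.5 µL; 0% = neutral wells and 100% = wells with inactivated enzyme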
Target sequence (P55789 whole entry, looked up): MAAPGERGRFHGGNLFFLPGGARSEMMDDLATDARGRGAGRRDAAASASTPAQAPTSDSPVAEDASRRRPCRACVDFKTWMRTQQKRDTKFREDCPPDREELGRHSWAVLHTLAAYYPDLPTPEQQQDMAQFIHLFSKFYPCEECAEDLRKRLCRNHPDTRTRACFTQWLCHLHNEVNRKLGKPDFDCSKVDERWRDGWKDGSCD
rRNA inh HTS – reduced GFP signal of wild-type E. coli, primary screen, bacterial rRNA inhibitor project, GFP/RFP fluorescence, OD600, single point; E. coli WT GFP vs humanized-ribosome RFP mutants, 24 h; active compounds read low; DMSO median 0, no signal -100; GFP signal change (wild-type ribosome), % (concentration not given with the values); 350,000 tested, 1.6% active;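 active = significant combined selectivity score with lowered wild-type GFP, culture density cut under 30%, mutant RFP and density less affected; inactive = any of these conditions unmet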; also: one replicate is shown; some compounds called inactive have numbers as strong as hits
FGF22 binding – binders of human FGF22 protein, primary screen, FGF22 synaptogenesis inhibitor project, biophysical, thermal shift, single point. 340,000 tested, 1.5% active. Fibroblast growth factor 22 (Homo sapiens), Q9HCT0. calls only at 9.99 µM. recombinant FGF22 thermal shift, SYPRO orange fluorescence; percent of sucrose octasulfate shift, DMSO zero;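 active = melting point raised past a set limit in the mean and every replicate; inconclusive = no clear call; three in four hits are not shown here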
Target sequence (Q9HCT0 whole entry, looked up): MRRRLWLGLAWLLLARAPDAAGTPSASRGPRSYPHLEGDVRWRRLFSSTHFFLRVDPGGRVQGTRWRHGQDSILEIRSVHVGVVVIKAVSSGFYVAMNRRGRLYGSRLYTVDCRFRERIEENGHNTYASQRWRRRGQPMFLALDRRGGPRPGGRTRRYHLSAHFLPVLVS
Vif A3G – inhibitors of Vif binding to APOBEC3G peptide, primary screen, biochemical, TR-FRET, GST-Vif 1-94, biotin-A3G peptide, dose response retest (AID 1117319). Virion infectivity factor (Human immunodeficiency virus type 1 group M subtype B (isolate …. TR-FRET GST-Vif / biotin-A3G peptide binding; higher % means a stronger effect; test concentration not given here; strong numbers were not always called active. one-dose inhibition, %; IC50 in µM for titrated hits. 260,000 tested, 0.57% active;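 active = above the screen mean plus three standard deviations and confirmed in dose response; inconclusive = results disagree or hit not tested in dose response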;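 also: Vif residues 1-94 fused to GST binding biotinylated APOBEC3G peptide 110-148; 0% = full assay without inhibitor and 100% = GST in place of GST-Vif; retest series ran down from 100 µM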
Ecoli growth – E. coli growth inhibition, primary screen, OD600; Escherichia coli growth, 23 h; active compounds read low; OD600 absorbance (concentration not given with the values); 330,000 tested, 0.21% active; AID 1053175, 2014;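 active = OD600 absorbance below the run mean of sample wells minus 3.6 SD, in any replicate, cut at about 0.56 in these data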;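 also: stock transfer was 300 nL into about 60 µL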
HNF4A DNA FP – change in binding of human HNF4A to DNA, primary screen, biochemical, fluorescence polarization, FITC-DNA; Hepatocyte nuclear factor 4-alpha (Homo sapiens), P41235; 1 h; activity change, % at 10 µM; 360,000 tested, 0.3% active; AID 1224865, 2016; in the data active = activity change above about 30%, passing the limit was not always enough;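 also: controls were the assay level and a saturating level of protein; the project sought stronger binding though the title names inhibitors; some compounds called inactive have numbers as strong as hits; positive values seem to mean higher polarization but the record does not say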
Target sequence (P41235 whole entry, looked up): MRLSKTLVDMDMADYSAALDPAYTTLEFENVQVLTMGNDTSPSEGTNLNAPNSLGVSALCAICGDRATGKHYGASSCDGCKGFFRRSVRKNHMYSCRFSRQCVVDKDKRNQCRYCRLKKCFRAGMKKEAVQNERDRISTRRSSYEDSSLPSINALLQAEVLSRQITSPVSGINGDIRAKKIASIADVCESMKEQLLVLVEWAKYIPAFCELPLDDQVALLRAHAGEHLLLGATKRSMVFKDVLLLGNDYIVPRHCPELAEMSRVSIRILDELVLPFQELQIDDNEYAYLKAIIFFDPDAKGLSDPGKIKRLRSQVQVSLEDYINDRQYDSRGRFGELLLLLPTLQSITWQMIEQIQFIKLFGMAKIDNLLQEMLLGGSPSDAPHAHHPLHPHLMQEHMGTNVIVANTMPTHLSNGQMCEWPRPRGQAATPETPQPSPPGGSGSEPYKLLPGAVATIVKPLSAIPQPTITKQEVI
rRNA inh HTS OD600 – second read-out of rRNA inh HTS, no call of its own (marks repeat the call); OD600 change, %; measured here: OD600 growth;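 optical density of the mix in the first replicate; 0 = DMSO median and -100 = no signal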
rRNA inh HTS RFP – recorded beside rRNA inh HTS, whose call it bears; RFP signal change, %; measured here: RFP humanized mutant strains;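 first replicate; 0 = DMSO median and -100 = no signal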
* hit, by the source's call; i = inactive; u = inconclusive; x = no result given; & = joins results of further samples.

SMILES | AF4-AF9 inh | ALR inh | rRNA inh HTS | rRNA inh HTS OD600 | rRNA inh HTS RFP | FGF22 binding | Vif A3G | Ecoli growth | HNF4A DNA FP
Cc1cc2[nH]c(=O)c(=O)[nH]c2cc1S(=O)(=O)NCC(C)c1ccccc1 (stereo not drawn) | 0.4 | x | x | x | x | i | -1.9% | x | 1.6
CCCOc1ccccc1C(=O)N(Cc1ccc(C)o1)C1CCS(=O)(=O)C1 (stereo not drawn) | -3.3 | -7.5 | 3.4 | 3.9 | 2.6 | i | x | 0.727 | 3.0
CC1CCCCN1S(=O)(=O)c1ccc(C(=O)Nc2sccc2C(N)=O)cc1 (stereo not drawn) | 9.5 | 20.4 | -21.9 | -38.4 | 2.0 | i | -0.5% | 0.721 | 3.5
Cc1ccn2cc(-c3cccc(S(=O)(=O)N4CCCC4)c3)nc2c1 | -1.7 | 97.4* | -24.9* | -15.3* | 2.1* | i | x | 0.627 | -4.6
O=C(C[C@@H]1CC[C@H](NC(=O)C2CCC2)[C@@H](CO)O1)NC1CCCCC1 | -4.9 | x | 3.0 | 3.2 | -1.2 | i | x | x | x
O=C(CCc1ccc(S(=O)(=O)N2CCOCC2)cc1)N/N=C/c1cccc(O)c1 | -3.9 | 19.9 | -0.7 | -2.0 | -7.9 | i | 3.2% | x | 2.1
O=C(CN1CCSC1=NCc1ccccc1)c1ccc(Cl)c(Cl)c1 | x | -7.6 | x | x | x | x | 11.2% | 0.606 | -0.5
C[C@H]1CCCCO[C@H](CN(C)C(=O)Nc2ccc3c(c2)OCO3)[C@@H](C)CN([C@@H](C)CO)C(=O)c2cc(NC(=O)Nc3ccc(C(F)(F)F)cc3)ccc2O1 | -2.0 | x | 0.1 | 7.3 | 8.9 | i | x | x | x
CC(C)c1ccc(NC(=O)CCc2ccccc2)cc1 | 3.4 | 1.6 | -28.4 | -30.2 | -7.3 | i | x | 0.616 | 1.6
CCc1ccc(OCC(=O)N(C)C2CCS(=O)(=O)C2)cc1 (stereo not drawn) | x | -13.8 | x | x | x | x | -0.7% | 0.728 | 0.5
O=C(CC1C(=O)NCCN1CC1CCCCC1)NCCc1ccc(F)cc1 (stereo not drawn) | 2.1 | x | 0.0 | -5.0 | 5.7 | i | 6.9% | 0.691 | 2.2
Cc1ccc(CN(Cc2ccco2)C(=S)Nc2ccccc2C)cc1 | 0.4 | -0.2 | -25.4 | -25.9 | -2.5 | x | 0.3% | 0.715 | -7.3
CCCOc1ccccc1C(=O)N(Cc1cccs1)C1CCS(=O)(=O)C1 (stereo not drawn) | x | -0.9 | x | x | x | x | -1.2% | 0.713 | -0.9
NS(=O)(=O)c1cccc(NC(=O)CSc2nc3ccccc3n2-c2ccccc2)c1 | 0.0 | x | -43.3* | -4.9* | 0.4* | i | u | 0.732 | -1.3
C[C@@H]1CN([C@@H](C)CO)C(=O)Cc2cc(NC(=O)c3ccncc3)ccc2O[C@@H]1CN(C)Cc1ccc(Oc2ccccc2)cc1 | 3.0 | x | -2.2 | -20.6 | 4.9 | i | x | x | x
Cc1ccc(S(=O)(=O)N(C)C[C@H]2Oc3ccc(NS(=O)(=O)c4ccc(Cl)cc4)cc3CC(=O)N([C@@H](C)CO)C[C@H]2C)cc1 | -1.0 | x | 2.3 | -10.6 | 0.1 | i | x | x | x
CC1(NC(=O)CCS(=O)(=O)c2ccc(Cl)cc2)CCS(=O)(=O)C1 (stereo not drawn) | 0.7 | -4.0 | 8.4 | 15.1 | 2.6 | i | -4.5% | 0.68 | 2.3
C[C@@H]1CN([C@@H](C)CO)S(=O)(=O)c2ccc(-c3cncnc3)cc2O[C@H]1CN(C)C(=O)c1cccc(F)c1 | 0.7 | x | 1.7 | 0.7 | -3.7 | i | x | x | x
CCCCn1c(N)c(N(CC(C)C)C(=O)C2CC(=O)N(c3ccc(C)cc3)C2)c(=O)[nH]c1=O (stereo not drawn) | -1.6 | -2.9 | 5.4 | 13.4 | -2.6 | i | -7.1% | 0.622 | -1.5
C[C@@H]1CCCCO[C@H](CN(C)C(=O)c2ccccc2)[C@H](C)CN([C@@H](C)CO)C(=O)c2cc(NS(=O)(=O)c3ccc(Cl)cc3)ccc2O1 | -3.3 | x | -2.1 | -9.7 | 1.0 | i | x | x | x
Cc1ccc(NC(=O)COC(=O)CCC(=O)c2cccs2)c(C)c1 | -3.2 | -2.3 | 2.9 | -10.6 | -0.8 | i | 2.5% | 0.727 | 2.6
O=c1cc(Cl)c(-c2ccccc2)n[nH]1 | x | -3.1 | x | x | x | x | 1.5% | 0.699 | -0.2
Cc1cc(C)c(NC(=O)CSc2nnc(-c3ccncc3)n2Cc2ccco2)c(C)c1 | x | -16.4 | x | x | x | x | -2.9%&-3.1% | 0.669 | 0.8
N#Cc1ccc(Oc2nc(Nc3ccc(F)cc3)nc(N3CCCC3)n2)cc1 | x | 3.9 | x | x | x | x | u | 0.738 | 1.6
CCOC(=O)c1ccc(NC(=O)CSc2nc(NC(=O)c3ccccc3)c3c(C)c(C)oc3n2)cc1 | x | -2.6 | x | x | x | x | -7.8% | 0.719 | 3.1
C[C@@H]1CN([C@H](C)CO)C(=O)c2cc(NC(=O)Cc3ccccc3)ccc2O[C@@H]1CN(C)Cc1ccc(Cl)c(Cl)c1 | 0.2 | x | -8.5 | -17.3 | 9.2 | i | x | x | x
CO[C@H]1CN(C)C(=O)c2cc(NC(C)=O)ccc2OC[C@@H](C)N(CCC(F)(F)F)C[C@@H]1C | 1.8 | x | -1.8 | 4.9 | -0.9 | i | x | x | x
CCOC(=O)N1CCN(C(=O)c2ccc3c(c2)NC(=O)C(N2CCOCC2)S3)CC1 (stereo not drawn) | x | -12.8 | x | x | x | x | -3.2% | 0.761 | -2.8
COC(=O)C1C(=O)C(C(=O)c2ccc([N+](=O)[O-])cc2)C(=O)CC1(C)C (stereo not drawn) | -0.9 | -7.4 | 4.3 | 11.8 | -0.5 | i | x | 0.684 | -2.9
C[C@H](CO)N1C[C@H](C)[C@@H](CN(C)Cc2ccc(Oc3ccccc3)cc2)Oc2c(NS(C)(=O)=O)cccc2C1=O | 4.5 | x | 2.5 | 1.0 | 3.5 | i | x | x | x
CCOC(=O)NC(NC(=S)Nc1ccccc1OC)C(Cl)(Cl)Cl (stereo not drawn) | x | 2.0 | x | x | x | x | -5.7% | 0.704 | 2.5
O=C(O)CC1COc2ccccc2N1S(=O)(=O)c1ccc(Br)cc1 (stereo not drawn) | 0.0 | -2.0 | -14.0 | -15.6 | -0.9 | i | 1.1% | 0.659 | -0.2
CCN(CC)CCNC1=CC(=O)OC12CCCCC2 | x | 6.2 | x | x | x | x | 11.6% | 0.741 | -1.2
O=C(CSC1=Nc2ccccc2C2=NC(CC(=O)N3CCN(c4ccccc4)CC3)C(=O)N12)NCC1CCCO1 (stereo not drawn) | -0.9 | -2.0 | x | x | x | i | x | 0.721 | 3.2
Cc1ccc(F)c(S(=O)(=O)NC(=O)C2(C)CCN2C(=O)CCC2CCCC2)c1 (stereo not drawn) | 0.0 | x | 9.2 | 12.4 | -0.5 | i | x | x | -2.3
CCOc1ccc(NC(=O)CN(C)C(=O)c2ccncc2)cc1OCC | -2.7 | -13.2 | 2.5 | 3.1 | -3.0 | i | x | 0.687 | 3.4
C[C@@H]1CN([C@H](C)CO)C(=O)c2cc(NC(=O)NC3CCCCC3)ccc2O[C@H]1CN(C)Cc1ccc(C(=O)O)cc1 | -3.1 | x | -0.2 | 4.7 | -0.9 | i | x | x | x
CCOc1ccc(OCC)c(NC(=O)C2CCN(S(=O)(=O)c3cccnc3)CC2)c1 | x | x | x | x | x | x | -1.6% | 0.683 | 0.2
CN(C)C(CNC(=O)/C=C/c1cccc(Cl)c1)c1ccccc1 (stereo not drawn) | 6.1 | 1.3 | -7.2 | 2.7 | 2.5 | i | -5.7% | 0.701 | -1.6
CC(=O)N1c2ccc(S(=O)(=O)NCc3ccccc3Cl)cc2CC1C (stereo not drawn) | -13.9 | -8.9 | -5.5 | -8.4 | 0.7 | i | -3.1% | 0.691 | 3.1

Quoted from the listing.
In HNF4A DNA FP, Cc1cc(C)c(NC(=O)CSc2nnc(-c3ccncc3)n2Cc2ccco2)c(C)c1 is entered as 0.8
In rRNA inh HTS RFP, COC(=O)C1C(=O)C(C(=O)c2ccc([N+](=O)[O-])cc2)C(=O)CC1(C)C (stereo not drawn) is entered as -0.5

The list continues.
SMILES | AF4-AF9 inh | ALR inh | rRNA inh HTS | rRNA inh HTS OD600 | rRNA inh HTS RFP | FGF22 binding | Vif A3G | Ecoli growth | HNF4A DNA FP
Cc1ccc(Cn2c(C(C)Nc3nc(-c4ccc(Cl)cc4)cs3)nc3cc(C(=O)NCCCO)ccc32)cc1 (stereo not drawn) | -5.1 | 0.1 | 4.1 | -1.6 | 13.1 | i | x | 0.673 | 6.8
O=C1NC(Cc2ccccc2)C(=O)N1CC(=O)N1CCCc2ccccc21 (stereo not drawn) | -0.7 | 8.1 | 0.2 | -1.6 | 0.1 | i | -1.0% | 0.633 | 5.8
CC(=O)Nc1ccc(S(=O)(=O)N2c3ccc(F)cc3CCC2C)cc1 (stereo not drawn) | 6.9 | 2.7 | -34.6 | -34.7 | -7.8 | i | x | 0.673 | 1.1
CC(=O)N[C@H]1C=C[C@H](CC(=O)NCc2ccc(Cl)cc2)O[C@H]1CO | -0.7 | x | 3.4 | 0.7 | -4.5 | i | x | x | x
Nc1nc(Br)c2c(F)cccc2c1-c1ccccc1 | x | 18.2 | x | x | x | x | 8.3% | x | 1.5
Cc1ccc(N2CC(C(=O)Nc3nnc(SCC(=O)N4CCOCC4)s3)CC2=O)cc1 (stereo not drawn) | 0.0 | -0.8 | 7.4 | 7.7 | -0.4 | i | 10.2% | 0.7 | 0.3
CCCCn1nnnc1C(C1CC1)N1CCN(C/C=C/c2ccccc2)CC1 (stereo not drawn) | 3.2 | x | -0.3 | 5.5 | -5.2 | i | x | x | -1.7
Cc1cccc(OCCCC(=O)Nc2nccs2)c1 | x | -0.5 | x | x | x | x | -2.5% | 0.725 | 0.8
O=C(C[C@@H]1CC[C@@H]2[C@H](COC[C@H](O)CN2Cc2ccncc2)O1)NCc1ccncc1 | -1.9 | x | 5.3 | 1.8 | 3.8 | i | x | x | x
C[C@H](CO)N1C[C@H](C)[C@@H](CN(C)C(=O)Nc2cccc3ccccc23)Oc2ccc(NS(=O)(=O)c3ccc(Cl)cc3)cc2C1=O | 1.9 | x | -3.4 | -9.2 | 6.4 | i | x | x | x
COc1ccc(CCN2CC(C(=O)NC3CCOCC3)CCC2=O)cc1 (stereo not drawn) | 0.9 | -6.3 | 1.2 | 8.0 | -0.3 | i | x | 0.71 | -0.5
COc1cc(CN2CC(=O)N(c3ccc(C)cc3)C2=S)cc(OC)c1OC | -3.9 | -0.9 | -0.3 | -3.7 | 2.5 | i | x | 0.714 | 0.8
O=C(Nc1ccccc1[N+](=O)[O-])c1cncc(Br)c1 | 1.6 | -20.7 | -2.3 | -4.2 | -3.5 | i | -3.1% | 0.721 | 4.8
O=C(Cn1cnc2ccccc2c1=O)NCc1ccco1 | x | -4.8 | x | x | x | x | 11.8% | 0.683 | -5.3

Screens: PubChem, several laboratories

A portion of the library; rates above refer to the full screens.
